Screening results: PubChem, National Center for Advancing Translational Sciences (NCATS)
VDR inhibitor: Inhibitors of the vitamin D receptor (VDR): qHTS; Vitamin D3 receptor (Homo sapiens), P11473; VDR-SRC2-3 peptide fluorescence polarization, 2 h; Potency, µM, inactives show max response, negative = inhibition, usual class: inhibitors; 400,000 compounds, 0.93% hits; AID 504847, 2011; active means well fitted inhibition curve with a large enough effect; inconclusive means small, poorly fitted or top-dose-only effect, or another doubt; inactive means no such curve, though single readings can be large or run the other way; further: series mostly up to about 120 µM
Target sequence (P11473 whole entry, looked up): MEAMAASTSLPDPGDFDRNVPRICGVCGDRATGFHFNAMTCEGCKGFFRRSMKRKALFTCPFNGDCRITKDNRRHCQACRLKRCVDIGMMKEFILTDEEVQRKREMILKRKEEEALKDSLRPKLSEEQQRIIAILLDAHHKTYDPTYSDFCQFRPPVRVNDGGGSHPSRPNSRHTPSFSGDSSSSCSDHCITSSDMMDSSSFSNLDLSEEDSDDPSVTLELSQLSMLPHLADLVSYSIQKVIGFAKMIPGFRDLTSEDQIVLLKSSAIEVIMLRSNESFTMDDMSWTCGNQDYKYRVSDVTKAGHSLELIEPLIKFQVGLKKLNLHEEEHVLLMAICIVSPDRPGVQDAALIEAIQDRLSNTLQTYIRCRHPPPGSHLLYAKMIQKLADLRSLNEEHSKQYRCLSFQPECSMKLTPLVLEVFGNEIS
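Compounds are added to VDR with labelled SRC2-3 coactivator peptide and held 2 h at room temperature. Inhibition of the VDR–peptide interaction is then read as a change in fluorescence polarization.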
* = called active by the depositor; ? = inconclusive; & = joins results of further samples. On the % scale 0 is the no-effect control and ±100 the full control effect; potency means the concentration at half of the fitted maximal effect. An excerpt; count on the stated rates, not on these rows.

SMILES	VDR inhibitor
CC(C)=CC(=O)Nc1c(C)cc(C)cc1Cl	-13%
CC(C)COc1ccc(C(=O)NCC2OCCc3ccccc32)cc1 (configuration not stated)	6%
O=C(CNCC1CCCO1)Nc1ccc([N+](=O)[O-])cc1C(=O)Nc1ccccc1F (configuration not stated)	-1%
Cc1ccc(/C(N)=N/OC(=O)N2CCOCC2)cc1	4%
CC(=O)c1sc(NC(=O)c2cc3c(C)nn(-c4ccccc4)c3s2)nc1C	3%
CCN(C[C@H]1N[C@@](Cc2ccccc2)(C(=O)OC)[C@H]2C(=O)N(C)C(=O)[C@@H]12)C(=O)Nc1ccc(C(F)(F)F)cc1	-7%
O=C(c1cc2ccccc2cc1O)N1CCCC(C(F)(F)F)C1 (configuration not stated)	21%
COc1ccc(Cl)cc1NC(=O)N(C)Cc1c(C)nn(C)c1C	-5%
Cc1c(C(=O)N2CCCCC2)c(S(=O)(=O)N2CCN(c3ccc(F)cc3)CC2)c(C)n1C	18%
COc1ccc(C(=O)/C=C/Nc2ccc(S(=O)(=O)Nc3cccc(C(C)=O)c3)cc2)cc1	-21%
Fc1ccc(OCc2nn[nH]n2)c(F)c1	-10%
COc1ccc(-c2noc(=O)n2Cc2ccc(C#N)cc2)cc1	-15%
COc1ccc(-c2cn3nc(N4CCC(C(=O)NCc5cccc(Cl)c5)CC4)sc3n2)cc1	9%
Cc1ccc(S(=O)(=O)N2CCCC(C(=O)NCc3cccnc3)C2)cc1Cl (configuration not stated)	-11%
COc1ccc(N2C(=O)c3ccccc3NC2c2ccc(OC)c(COc3ccccc3F)c2)cc1 (configuration not stated)	-16%
Cc1onc(-c2ccccc2Cl)c1C(=O)OCC(=O)Nc1cccc(S(=O)(=O)N2CCOCC2)c1	7%
Cc1cccc(N2CCN(C(=O)C3CCN(c4nnc(-n5cccc5)s4)CC3)CC2C)c1 (configuration not stated)	-12%
COc1ccc(C(=O)Nc2ccc(S(=O)(=O)N(C)c3ccccc3)cc2)cc1	13%
C#CCSc1nnc(C)c(C)n1	15%
OCCCNc1ncnc2oc(-c3ccccc3)c(-c3ccccc3)c12	-11%
N#Cc1nc(COc2ccccc2)oc1N1CCC(Cc2ccccc2)CC1	6%
Cc1nn(CCc2nn[nH]n2)c2nc(-c3ccc(C4CCCCC4)cc3)cc(C(F)(F)F)c12	?
CN(C)C(=O)CCC(=O)N1CCCCC1C(=O)Nc1ccc(Oc2ccccc2F)cc1 (configuration not stated)	8%
COc1ccc2c(c1OC)C(=O)N1C(C(=O)O)Cc3c([nH]c4ccccc34)C21 (configuration not stated)	1%
CCC(=O)Nc1nc2ccccc2n1Cc1ccccc1Cl	-10%
(continued)
SMILES	VDR inhibitor
CC(C)CC(C(=O)NCC1CCN(Cc2ccc(F)cc2)CC1)N1Cc2ccccc2C1=O (configuration not stated)	12%
COc1ccc(/C=N/Nc2nc(-c3cccnc3)nc3ccccc23)cc1OC	13%
COc1ccc(CN(C)C(=O)c2cccc(S(=O)(=O)N3CCN(c4ccccc4)CC3)c2)c(OC)c1OC	-17%
COc1ccc(N(C)C(=O)Cc2c(C(=O)O)[nH]c3ccccc23)c(OC)c1	-11%
O=C(Cc1ccccc1[N+](=O)[O-])NC1CC1	-18%
COc1cc(/C=C(\NC(C)=O)C(=O)NC(C)(C)C)ccc1OC(C)=O	-7%
Cc1cccc(NS(=O)(=O)c2ccc(C(=O)NCC(c3ccco3)N3CCCCC3)cc2)c1C (configuration not stated)	4%
CCCCn1c(=O)c2[nH]c(C34CC5CC(CC3C5)C4)nc2n(CCCO)c1=O	?
O=S1(=O)CC=C(CSC(=S)NC2CCS(=O)(=O)C2)C1 (configuration not stated)	-13%
COc1cc(C2C(C#N)=C(N)N(N(C)C)C3=C2C(=O)CC(C)(C)C3)cc(OC)c1OC (configuration not stated)	17%
CC(=O)N1CCCC1C(=O)O (configuration not stated)	0%&1%
O=C(O)c1cccc(S(=O)(=O)Nc2ccc3c(c2)OCO3)c1	3%
CCCC(CCC(=O)Nc1nccs1)C(=O)O (configuration not stated)	16%
CCOc1cnc(-c2c(-c3c(F)cccc3Cl)noc2C)o1	23%
Cc1ccc(C)c(NC(=O)c2cc3c([nH]c4ccccc43)c(C)n2)c1	0%
CCOC(=O)COc1cc(Br)c(C2NC(=O)NC(C)=C2C(C)=O)cc1OCC (configuration not stated)	10%
Cc1[nH]c(=O)[nH]c(=O)c1S(=O)(=O)N1c2ccc(F)cc2CCC1C (configuration not stated)	-2%
Cc1ccc(C2=NN=C(NC(=O)C(F)(F)F)SC2)cc1	50µM*
Cc1ccc2c(SCC(=O)NCc3ccco3)nc(-c3ccc(F)cc3)nc2c1	4%
Brc1ccccc1CN1CCC(Cc2ccccc2)CC1	13%
NS(=O)(=O)c1ccc(CCNC(=O)CCNC(=O)c2ccco2)cc1	4%
CCc1c(C#N)sc(C(N)=O)c1CC	-3%
CN(C)C(CNc1ccc(C(N)=O)cc1[N+](=O)[O-])c1ccccc1 (configuration not stated)	-9%
O=C(NCc1ccncc1)C(=O)NCC1OCCCN1S(=O)(=O)c1cc(F)ccc1F (configuration not stated)	-1%
CN1C(=O)c2ccc(S(=O)(=O)c3ccc(C(=O)O)cc3)cc2C1=O	6%

Rewritten in CSV form: part of the list above
SMILES,VDR inhibitor
CC(C)CC(C(=O)NCC1CCN(Cc2ccc(F)cc2)CC1)N1Cc2ccccc2C1=O (configuration not stated),12%
COc1ccc(/C=N/Nc2nc(-c3cccnc3)nc3ccccc23)cc1OC,13%
COc1ccc(CN(C)C(=O)c2cccc(S(=O)(=O)N3CCN(c4ccccc4)CC3)c2)c(OC)c1OC,-17%
COc1ccc(N(C)C(=O)Cc2c(C(=O)O)[nH]c3ccccc23)c(OC)c1,-11%
O=C(Cc1ccccc1[N+](=O)[O-])NC1CC1,-18%
COc1cc(/C=C(\NC(C)=O)C(=O)NC(C)(C)C)ccc1OC(C)=O,-7%
Cc1cccc(NS(=O)(=O)c2ccc(C(=O)NCC(c3ccco3)N3CCCCC3)cc2)c1C (configuration not stated),4%
CCCCn1c(=O)c2[nH]c(C34CC5CC(CC3C5)C4)nc2n(CCCO)c1=O,?
O=S1(=O)CC=C(CSC(=S)NC2CCS(=O)(=O)C2)C1 (configuration not stated),-13%
COc1cc(C2C(C#N)=C(N)N(N(C)C)C3=C2C(=O)CC(C)(C)C3)cc(OC)c1OC (configuration not stated),17%
CC(=O)N1CCCC1C(=O)O (configuration not stated),0%&1%
O=C(O)c1cccc(S(=O)(=O)Nc2ccc3c(c2)OCO3)c1,3%
CCCC(CCC(=O)Nc1nccs1)C(=O)O (configuration not stated),16%
CCOc1cnc(-c2c(-c3c(F)cccc3Cl)noc2C)o1,23%
Cc1ccc(C)c(NC(=O)c2cc3c([nH]c4ccccc43)c(C)n2)c1,0%
CCOC(=O)COc1cc(Br)c(C2NC(=O)NC(C)=C2C(C)=O)cc1OCC (configuration not stated),10%
Cc1[nH]c(=O)[nH]c(=O)c1S(=O)(=O)N1c2ccc(F)cc2CCC1C (configuration not stated),-2%
Cc1ccc(C2=NN=C(NC(=O)C(F)(F)F)SC2)cc1,50µM*

(next part)
SMILES	VDR inhibitor
CCN(C(=O)COC(=O)c1ccc(Cl)nc1)C1CCS(=O)(=O)C1 (configuration not stated)	-2%
S=C(NCc1ccccc1)N1CCN(c2ccccc2)CC1	1%
CC(C)CC(NC(=O)c1ccccc1)C(=O)OCC(=O)Nc1ccc(S(N)(=O)=O)cc1 (configuration not stated)	0%
CC1(C)CC(NC(=O)C2CCCCC2)CC(C)(C)N1	-7%
CCN(CC)c1ccc(-n2cc3c(=O)n(C)c(=O)n(C)c3c2)cc1	-15%
Cc1ccccc1NC(=O)C1Cc2ccccc2C(=O)O1 (configuration not stated)	1%
Cc1onc(-c2ccccc2)c1C(=O)N1CCC(CO)(Cc2ccccc2)CC1	-14%
CCc1ccccc1NC(=O)C1C(c2ccccc2)C1(Cl)Cl (configuration not stated)	-17%
COc1ccc(NC(=O)CCC(=O)OCc2ccc(Br)cc2)cc1	-5%
Cc1ccc(C(=O)N2CCN(c3ccc(NC(=O)c4cc(C)cc(C)c4)cc3)CC2)cc1	-6%
O=C(/C=C/c1ccc(Br)cc1)NC(=S)N1CCOCC1	2%
Cc1nc(SCC(=O)NCCc2ccccc2)n[nH]1	-5%
O=C(Nc1ccc(Cl)c(Cl)c1)O/N=C/c1ccncc1	7%
O=[N+]([O-])c1cccc(C2NCC(c3ccccc3Cl)c3c2[nH]c2ccccc32)c1 (configuration not stated)	-8%
CCc1cccc(NC(=O)CC2SC(N3CCCC3)=NC2=O)c1 (configuration not stated)	-6%
Cc1cc2c(c(C)c1Br)C(c1ccc3c(c1)OCO3)CC(=O)O2 (configuration not stated)	7%&-10%
Clc1cccc(Cl)c1CNC1CCCC1	15%
COc1ccc(-n2c(SCC(N)=O)nc3sc4c(c3c2=O)CCN(C)C4)cc1	7%
COc1cc([N+](=O)[O-])ccc1NC(=S)N1CCN(c2ccccn2)CC1	1%
Cc1ccccc1-c1ocnc1C(=O)Nc1ccccc1NC(=O)c1ccccn1	5%
COc1cc(/C=C/C(=O)OCC(=O)NCc2ccco2)ccc1OC(F)F	-1%
Cc1ccc(CSc2nnc(-c3cccc4ccccc34)o2)cc1	0%
O=C(Nc1nnc(C2CCCO2)s1)c1cccs1 (configuration not stated)	-6%
CCN(CC)c1ccc(C(=O)Nc2ccccc2)cc1[N+](=O)[O-]	10%
CC1CCCN(CCCNC(=O)c2ccc(CS(=O)(=O)Cc3cccc(Cl)c3)o2)C1 (configuration not stated)	11%

Sorted by value in VDR inhibitor (lowest first): some entries from above.
SMILES	VDR inhibitor
COc1ccc(N2C(=O)c3ccccc3NC2c2ccc(OC)c(COc3ccccc3F)c2)cc1 (configuration not stated)	-16%
O=C(CNCC1CCCO1)Nc1ccc([N+](=O)[O-])cc1C(=O)Nc1ccccc1F (configuration not stated)	-1%
Cc1ccccc1-c1ocnc1C(=O)Nc1ccccc1NC(=O)c1ccccn1	5%

Next section:
SMILES	VDR inhibitor
COc1ccc(CCN2C(=O)C3C4CCC(C4=C(C)C)C3C2=O)cc1OC (configuration not stated)	-6%
O=C(CCc1ccccc1)NCC(c1ccco1)N1CCc2ccccc21 (configuration not stated)	-6%
COc1ccc(C2=NOC(Cn3nc(-c4ccccc4)cc3C(=O)NCc3ccc(C)cc3)C2)cc1 (configuration not stated)	-20%
CCOC(=O)CC(=O)Nc1c(C)cc(C)cc1C	0%
Cc1cccc2cc(CN(CC3CCCO3)C(=O)NC3CCCCC3)c(=O)[nH]c12 (configuration not stated)	-6%
Cc1nc(Nc2ccc3c(c2)OCCO3)c2c(C)c(C)sc2n1	0%
Cc1nn(CC#N)c(=O)n1N(C)c1ncc(C(F)(F)F)cc1Cl	-20%
C/C(N)=C(/C#N)C(=O)COC(=O)c1cc(S(=O)(=O)N2CCCCC2)ccc1C	-6%
C=CCOc1nc2c(c(=O)n(C)c(=O)n2C)n1C	19%
C[C@H]1CN([C@@H](C)CO)C(=O)c2cccc(NC(=O)C3CC3)c2O[C@H]1CN(C)Cc1ccc(C(F)(F)F)cc1	7%
Cc1ccc(CN2CCN(Cc3ccc(OCCO)cc3)CC2CCO)o1 (configuration not stated)	15%
COC(=O)c1c(C)nc2ccccc2c1C(=O)O	?
Cc1cc2oc(=O)cc(CN3CCC(C)CC3)c2cc1C	19%
COc1ccccc1COCC(O)CN(Cc1ccco1)Cc1ccccc1O (configuration not stated)	-4%
OCCn1c(Cl)nc2ccccc21	-9%
COc1ccc(-c2cn3cccnc3n2)cc1NC(=O)c1ccccc1C(F)(F)F	0%
CN(C)S(=O)(=O)c1ccc(NC(=O)C2CC(=O)N(Cc3ccccc3)C2)cc1 (configuration not stated)	15%
CC(C)(C)C(=O)CSc1nc2c(c(-c3cccs3)c1C#N)CCC2	-10%
O/N=C(\CN1CCCCC1)c1ccccc1	?
O=C(Cn1[nH]c(=O)c2ccccc2c1=O)N1CC=C(c2ccccc2)CC1	18%
O=C(COc1cccc2cccnc12)NCC(F)(F)F	17%
Cc1ccccc1COC(=O)CN1C(=O)NC2(CCCC2)C1=O	-6%
CCOC(=O)c1ccc2[nH]c3c(c2c1)CCCC3O (configuration not stated)	-11%
O=C(CCCc1ccccc1)N=C1SC2CS(=O)(=O)CC2N1c1ccccc1F (configuration not stated)	-9%
COc1c(Cl)cc(Cl)cc1C(=O)Nc1ccccc1N1CCN(C(C)=O)CC1	3%
The results go on.
SMILES	VDR inhibitor
O=C(COC(=O)CCC(=O)N1CCOCC1)Nc1ccc(Br)cc1Br	-10%
Cc1ccc(-c2nnn(CC(=O)N3C(C)CCCC3C)n2)cc1 (configuration not stated)	0%
CCOc1cc(NC(=S)Nc2cccc(OC)c2)c(OCC)cc1NC(=O)c1ccc(C)cc1	-7%
C=C1CCC[C@]2(C)C[C@H]3OC(=O)C(CN4CCOCC4)[C@H]3C[C@@H]12 (some centres not stated)	-7%
CCN=C1S/C(=C\c2ccc(N3CCOCC3)cc2C)C(=O)N1CC	-5%
Cc1cc(NC(=O)CSc2nnc(-c3ccccc3Cl)o2)no1	14%
CCOc1ccc(CN2CCN(S(=O)(=O)c3ccc(NC(C)=O)cc3)CC2)cc1OC	9%
Cc1c(NC(=O)c2ccc(F)cc2)c(=O)n(-c2ccccc2)n1C	-15%
CCOc1ccccc1N(C)C(=O)C1CCN(S(=O)(=O)c2cccc3nonc23)CC1	-7%
CCOC(=O)N1CCN(C(=O)CCc2c(C)nc3nc(C)nn3c2C)CC1	19%
C/C=C/c1ccc(OCC(=O)NNC(=O)CN(C)S(=O)(=O)c2ccc(C)cc2)c(OC)c1	-17%
CC(C)c1ccc(N2C(=O)CC(Sc3ncn[nH]3)C2=O)cc1 (configuration not stated)	19%
COc1ccc(-c2cc(CCCC(=O)NCCc3cc(OC)ccc3OC)no2)cc1	-9%
Cc1ccc(NC2=NC(c3ccccc3)n3c(nc(C)cc3=O)N2)c(C)c1 (configuration not stated)	-13%
Cn1c(-c2ccc3c(c2)OCO3)cnc1NCc1cccc(Cl)c1	7%
